Bioassay records as filed in PubChem.
PKD1 inh = blocks activity of human protein kinase D1; Q15139; PKD1 kinase fluorescence polarization assay; inhibition, %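 (about 10 µM by stock and volumes)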; hit rate 0.056% among 200,000;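 active = inhibition of 50% or more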;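 also: controls were vehicle for no effect and a reference inhibitor for full effect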
RGS16-Gao HTS = modulates binding between human RGS16 and Galphao; O15492+P09471; bead-based flow cytometry RGS16-Galphao binding, fluorescence; actives lie on both sides; binding response (% of control), % at 10 µM; hit rate 0.38% among 220,000; AID 1441;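 active = below 25% or above 175%, edge rows of some plates excepted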;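 also: Galphao activated by GDP with aluminum fluoride before binding; 100% = wells without compound and 0% = beads without RGS; some results beyond the cut were filed as inactive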
Target sequence (O15492 whole entry, looked up): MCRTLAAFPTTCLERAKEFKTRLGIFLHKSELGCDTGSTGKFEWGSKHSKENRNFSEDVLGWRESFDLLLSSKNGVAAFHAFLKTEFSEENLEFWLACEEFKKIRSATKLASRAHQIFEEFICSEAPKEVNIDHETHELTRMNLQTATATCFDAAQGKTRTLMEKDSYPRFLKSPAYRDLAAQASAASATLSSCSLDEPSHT
Target sequence (P09471 whole entry, looked up): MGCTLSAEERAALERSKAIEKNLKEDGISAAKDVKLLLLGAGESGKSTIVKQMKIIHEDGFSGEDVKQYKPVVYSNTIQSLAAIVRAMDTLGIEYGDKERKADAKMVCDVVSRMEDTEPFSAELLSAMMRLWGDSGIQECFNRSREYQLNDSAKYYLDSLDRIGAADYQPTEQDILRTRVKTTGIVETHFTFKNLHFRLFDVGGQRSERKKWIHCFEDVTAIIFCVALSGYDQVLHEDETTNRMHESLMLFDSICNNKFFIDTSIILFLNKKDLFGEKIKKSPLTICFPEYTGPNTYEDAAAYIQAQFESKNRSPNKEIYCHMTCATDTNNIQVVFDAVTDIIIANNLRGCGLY
INS promoter inh = TRM-6 insulin promoter activity inhibition; TRM-6 cells (human fetal islet line), insulin promoter-eGFP reporter, imaging; reporter expression induced with tamoxifen; inhibition, % at 2 µM; hit rate 0.9% among 130,000;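 active = inhibition above the mean plus 3 SD, with well images judged a real hit on visual review, cut at about 60% in these data, passing the limit was not always enough; inconclusive = inhibition over the cutoff but images rejected on review; inactive = inhibition not above the cutoff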
HSV replic up = HSV replication enhancement; HSV replication augmentation in cells, fold increase; maximum fold increase; hit rate 0.005% among 220,000; AID 1956;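 active = peak rise of 1.5-fold or more in the series; inconclusive = self-fluorescent or not available for retest; tested in PC3 cells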;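 also: first round at 10 µM; read as green reporter fluorescence; hits show the peak of a series up to 25 µM; 1 = signal of infected wells without compound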
GALR2 agonist = agonists of human galanin receptor 2 (GALR2); GALR2-expressing cells, agonist activation read-out; activation, %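 (tested at 5 µM)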; hit rate 0.48% among 140,000;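 active = above mean plus 3 SD of all compounds, about 5% in these data, not always enough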;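 also: 0% = vehicle buffer wells and 100% = reference agonist at full effect; tested in CHO reporter cells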
Target sequence (O43603 whole entry, looked up): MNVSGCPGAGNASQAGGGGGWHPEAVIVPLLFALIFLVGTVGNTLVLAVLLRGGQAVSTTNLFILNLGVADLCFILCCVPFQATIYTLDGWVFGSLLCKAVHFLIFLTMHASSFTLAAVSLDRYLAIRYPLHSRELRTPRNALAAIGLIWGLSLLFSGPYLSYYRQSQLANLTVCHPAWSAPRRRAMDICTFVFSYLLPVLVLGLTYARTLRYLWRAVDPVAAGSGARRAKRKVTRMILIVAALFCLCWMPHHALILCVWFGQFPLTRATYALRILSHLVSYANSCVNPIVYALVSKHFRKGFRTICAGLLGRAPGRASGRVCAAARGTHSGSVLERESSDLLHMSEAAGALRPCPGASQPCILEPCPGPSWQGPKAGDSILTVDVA
INS promoter inh cell count = also measured in INS promoter inh; calls as there; normalized cell count, %; measured here: cell count, toxicity; reference of the scale not given here;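 cells exposed to compound for 48 h; stained nuclei by imaging scaled within each plate; lower means fewer cells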
HSV replic up primary fold = also measured in HSV replic up; calls as there; fold increase; compound at 10 µM; measured here: primary screen fold increase 10 uM; tested in PC3 cells;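 GFP signal in the first replicate; 1 = infected wells without compound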
Numbers without * were called inactive; i = inactive; ? = inconclusive; · = no result given. No enrichment for hits. Share with any hit: about 1.3%.

SMILES	PKD1 inh	RGS16-Gao HTS	INS promoter inh	INS promoter inh cell count	HSV replic up	HSV replic up primary fold	GALR2 agonist
CC1(C)CC(N2CCC(=O)N(C3CC(C)(C)NC(C)(C)C3)C2)CC(C)(C)N1	-7	96	·	·	i	0.99	-0.7
Cc1ccc2nc(Cl)c(/C=N/NC(=O)[C@H]3C[C@@H]3c3ccccc3)cc2c1	-8	98	34	58	i	0.92	0.2
COc1cc([N+](=O)[O-])cc(/C=N\NC(=O)C2COc3ccccc3O2)c1O (stereo unspecified)	·	88	·	·	i	1.2	·
Fc1ccc(NC(=S)N2CCCN(c3ccc(C(F)(F)F)cn3)CC2)c(F)c1	·	97	·	·	i	1.1	·
COc1ccc(C(C(=O)NC(C)(C)C)N(Cc2ccccc2)C(=O)CCC(=O)Nc2cc(C)on2)cc1 (stereo unspecified)	-11	100	-20	113	i	0.98	·
CC(=O)n1cc([C@H]2C=C(C(=O)N3CCN(Cc4ccccc4)CC3)O[C@@H](OCCCCO)C2)c2ccccc21	4	106	·	·	i	1.1	·
COc1cc(/C=C(\C#N)C(=O)c2c[nH]c3ccccc23)cc(OC)c1O	-6	93	27	71	?	·	·
CC(=O)c1ccc(OCC(O)CN2C(C)CCCC2C)cc1 (stereo unspecified)	-21	87	·	·	i	0.93	-0.6
c1ccc2c3c(c(CN4CCCCC4)cc2c1)COC3	·	106	·	·	i	0.7	·
CC(=O)C1C(c2ccccc2)c2c(noc2C)CC1(C)O (stereo unspecified)	·	99	·	·	i	1.2	·
CCOC(=O)C1(Cc2cccc(OC)c2)CCCN(S(=O)(=O)c2cccnc2)C1 (stereo unspecified)	4	103	·	·	i	0.85	·
CC1CC/C(=N/Nc2ccccc2)C(=O)N1 (stereo unspecified)	10	132	9	58	i	0.97	-0.6

Limited to PKD1 inh, HSV replic up primary fold and INS promoter inh cell count, for six of the compounds above:
smiles	PKD1 inh	HSV replic up primary fold	INS promoter inh cell count
CC(=O)n1cc([C@H]2C=C(C(=O)N3CCN(Cc4ccccc4)CC3)O[C@@H](OCCCCO)C2)c2ccccc21	4	1.1	·
COc1cc(/C=C(\C#N)C(=O)c2c[nH]c3ccccc23)cc(OC)c1O	-6	·	71
CC(=O)c1ccc(OCC(O)CN2C(C)CCCC2C)cc1 (stereo unspecified)	-21	0.93	·
c1ccc2c3c(c(CN4CCCCC4)cc2c1)COC3	·	0.7	·
CC(=O)C1C(c2ccccc2)c2c(noc2C)CC1(C)O (stereo unspecified)	·	1.2	·
CCOC(=O)C1(Cc2cccc(OC)c2)CCCN(S(=O)(=O)c2cccnc2)C1 (stereo unspecified)	4	0.85	·

Later entries
SMILES	PKD1 inh	RGS16-Gao HTS	INS promoter inh	INS promoter inh cell count	HSV replic up	HSV replic up primary fold	GALR2 agonist
Cc1noc(C)c1COc1cccc(C(=O)OCC(=O)NCCN2C(=O)CSC2=O)c1	-2	102	-7	87	i	0.94	·
Cc1ccc(C2=NN=C(NC(=O)CSc3nc(C)cc(C)n3)SC2)cc1	-11	101	·	·	i	1.1	-0.2
CCOC(=O)c1c(NC(=O)c2ccc(C)cc2)sc2c1CC(C)(C)OC2	-2	90	-34	120	i	1.1	2.0
CCc1cccc(CC)c1N(COC)C(=O)Cn1c(CO)nc2ccccc21	-11	126	10	88	i	0.97	-3.2
CCOC(=O)C1(CCOC)CCN(Cc2cnc(-c3cccc(C)c3)nc2)CC1	2	95	·	·	i	1	·
COc1ccc(/C=N/NC(=O)c2nn(-c3ccc(Cl)cc3)c(=O)c3c(N)scc23)cc1	-1	62	-43	107	i	0.95	-2.6
CC(=O)c1c(C)[nH]c(C(=O)N2CCN(C(=O)c3ccco3)CC2)c1C	2	97	-1	193	i	1	-0.8
C=CCN(CC=C)C(=S)NC(=O)Cc1cccc2ccccc12	-8	103	·	·	i	0.95	·
CCN(CC)C(=O)N1CCN(S(=O)(=O)c2ccc(C)c(C)c2)CC1	-4	99	21	125	i	0.92	-1.2
COc1c(S(=O)(=O)n2nc(C)cc2C)ccc(Cl)c1Cl	4	97	13	143	i	0.81	0.9
O=C1CCN(Cc2nnnn2CC2CCCO2)c2ccccc2N1 (stereo unspecified)	-6	99	-54	213	i	1.1	-0.8
O=C(O)c1ccc(CNC(=O)c2ccccc2NC(=O)c2ccc([N+](=O)[O-])cc2)cc1	-8	97	27	68	i	1	·
COc1ccc(NC(=O)/C(=C\c2cccnc2)NC(=O)c2cccs2)cc1	-3	101	·	·	i	1.2	0.4
FC(F)(F)c1cc(-c2ccco2)nc(N2CCOCC2)n1	4	102	-85	121	i	0.93	-2.2
Cc1cccc(NC(=O)C2CCCN(S(=O)(=O)c3cccc4cccnc34)C2)c1 (stereo unspecified)	-10	107	·	·	i	1	-2.4
O=C(NC(=S)Nc1nc(-c2ccccc2)cs1)c1cccs1	3	102	0	164	i	0.96	0.8
CC(O)CCC(=O)NCCNC(=O)CCC(C)O (stereo unspecified)	-11	116	-35	95	i	0.79	-1.1
COCCNC(=S)N1C2CCC1CC(NC(=O)NC13CC4CC(CC(C4)C1)C3)C2 (stereo unspecified)	9	94	4	78	i	0.92	-3.4
O=C(NNC(=O)c1cc(-c2ccc(Cl)cc2Cl)nc2ccccc12)Nc1ccccc1	-4	108	·	·	i	0.84	-1.9
Nn1c(-c2ccco2)n[nH]c1=S	2	95	·	·	i	0.84	-1.8
c1ccc2sc(N3CCOCC3)nc2c1	8	100	47	119	i	1	-1.4
Cc1ccc(C)c(N(C(=O)Cc2cccs2)C(C(=O)NC2CCCC2)c2ccc(C)o2)c1 (stereo unspecified)	4	106	12	67	i	0.68	-0.7
CNC(=O)Cc1csc2ccc(C)cc12	·	120	·	·	i	0.98	·
CCCN(CCC)S(=O)(=O)c1ccc(Cl)c(OC)c1	-3	102	-33	95	i	1	·

Among those listed so far, these have a halogen.
SMILES	PKD1 inh	RGS16-Gao HTS	INS promoter inh	INS promoter inh cell count	HSV replic up	HSV replic up primary fold	GALR2 agonist
Cc1ccc2nc(Cl)c(/C=N/NC(=O)[C@H]3C[C@@H]3c3ccccc3)cc2c1	-8	98	34	58	i	0.92	0.2
Fc1ccc(NC(=S)N2CCCN(c3ccc(C(F)(F)F)cn3)CC2)c(F)c1	·	97	·	·	i	1.1	·
COc1ccc(/C=N/NC(=O)c2nn(-c3ccc(Cl)cc3)c(=O)c3c(N)scc23)cc1	-1	62	-43	107	i	0.95	-2.6
COc1c(S(=O)(=O)n2nc(C)cc2C)ccc(Cl)c1Cl	4	97	13	143	i	0.81	0.9
FC(F)(F)c1cc(-c2ccco2)nc(N2CCOCC2)n1	4	102	-85	121	i	0.93	-2.2
O=C(NNC(=O)c1cc(-c2ccc(Cl)cc2Cl)nc2ccccc12)Nc1ccccc1	-4	108	·	·	i	0.84	-1.9
CCCN(CCC)S(=O)(=O)c1ccc(Cl)c(OC)c1	-3	102	-33	95	i	1	·

Remaining list, next part
SMILES	PKD1 inh	RGS16-Gao HTS	INS promoter inh	INS promoter inh cell count	HSV replic up	HSV replic up primary fold	GALR2 agonist
Cc1ccnn1CC(=O)N/N=C/c1c[nH]c2ccccc12	·	99	·	·	i	1	·
CCCCn1c(CN2C(=O)c3ccccc3C2=O)nc2ccccc2c1=O	-4	95	3	108	i	0.95	-2.3
CCOC(=O)c1c(C)[nH]c(=S)c(C#N)c1-c1ccc(OC)cc1	-7	93	-131	64	i	0.95	-2.0
CC(=O)N1CC23C=CC(CC2CC12CCCCCC2)O3 (stereo unspecified)	-1	114	33	65	i	0.91	·
NNC(=O)CN1C(c2ccccc2)=Nc2ccc(Br)cc2C1c1ccccc1 (stereo unspecified)	0	103	33	86	i	0.87	·
CNC(=O)CC1C(=O)N(c2ccc(Cl)cc2)C(=S)N1CCc1ccc(OC)c(OC)c1 (stereo unspecified)	-1	102	·	·	i	0.82	·
COC(=O)c1c(NC(=O)Cc2cccs2)sc2c1CCCC2	48	96	·	·	i	0.93	0.5
CCN1CCN(CCCNC(=O)c2cc3sccc3n2CC)CC1	-3	103	·	·	i	1	-1.0
CCOC(=O)Cc1nc(-c2ccccc2)n[nH]1	2	91	·	·	i	0.9	·
O=C(NCC1CCCO1)C1C2C=CC3(CN(Cc4cccs4)C(=O)C13)O2 (stereo unspecified)	-3	103	·	·	i	0.93	-0.2
Cc1ccc(C2=NN(S(C)(=O)=O)C(c3ccc4nccnc4c3)C2)cc1 (stereo unspecified)	1	108	-19	181	i	0.99	-0.3
Cc1cc(=S)[nH]c2c(C)cccc12	2	94	28	95	i	0.8	-3.4
COc1ccccc1-c1cc(C(=O)Nc2sc3c(c2C#N)CCC(C)C3)c2ccccc2n1 (stereo unspecified)	1	100	41	101	i	1.1	-0.9
CN1C=CC=C/C1=C1\SC(=S)N(N)C1=O	4	96	20	79	i	0.99	·
CCOC(=O)c1ccc(NC(=O)CSc2ncccn2)cc1	-12	76	-14	57	i	0.95	0.5
Cc1onc(-c2ccccc2Cl)c1C(=O)Nc1ncn[nH]1	4	-1.7*	4	119	i	1.1	-2.2
O=C(O)c1cnccn1	-7	110	23	60	i	0.79	-1.2
Cn1cc(C(=O)c2ccc(Cl)cc2Cl)cc1C(=O)N/N=C(\N)COc1ccc(Cl)cc1	·	99	·	·	i	0.68	·
CCc1noc(C)c1C(=O)Nc1nc(-c2cc(C)ccc2C)c(C)s1	-8	105	·	·	i	0.87	-1.2
Cc1c(O)ccoc1=O	-3	92	·	·	i	0.9	·
CSCCC(Nc1ncnc2ccc(Br)cc12)C(=O)O (stereo unspecified)	-6	110	·	·	i	0.91	-2.6
C/C=C/C(=O)Nc1cccc(C(F)(F)F)c1	0	105	·	·	i	1.1	-1.6
O=C1NC(=S)S/C1=C\c1ccc(SCc2ccccc2)o1	5	58	·	·	i	0.96	0.1
CCCCn1nnnc1SCC(=O)Nc1sc2c(c1C#N)CCCC2	-21	118	37	51	i	0.73	-1.9
Brc1ccc(-c2nnc3sc(CN4CCN(c5ccccc5)CC4)cn23)cc1	2	94	·	·	i	0.95	-0.2
CCSc1nc2sc3c(c2c(=O)n1CC)CC(C)(C)OC3	-1	102	9	130	i	0.88	0.5
CCO[C@@H]1OC(C(=O)N2CCN(Cc3ccc4c(c3)OCO4)CC2)=C[C@H](C)[C@H]1CCCO	-3	103	·	·	i	0.77	·
O=C(COc1ccccc1-c1ccccc1)NCc1cccc(Cl)c1	-5	84	·	·	?	·	1.0
Cc1onc(-c2ccccc2)c1C(=O)Nc1ccccc1N1CCOCC1	-2	94	-25	100	i	0.58	0.2
Cc1cccc(OCC(=O)Nc2ccc(C(=O)c3ccc(C(=O)O)cc3)cc2)c1	2	103	·	·	i	1.1	·
Cc1oc(C(=O)O)cc1COc1ccc2c3c(c(=O)oc2c1)CCC3	-2	101	3	56	i	0.9	-1.1
O=S(=O)(Nc1ccc2c(c1)OCCO2)c1ccc(F)cc1	-1	107	·	·	i	1.1	-1.2
